From PubChem BioAssay
CtBP-E1A inh = inhibitors of CtBP/E1A interaction | AlphaScreen GST-E1A/His-CtBP binding, 1536-well; hits give low values; control for the full effect not named in the record | activity change, % (concentration not given with the values) | 340,000 compounds, 0.49% hits | AID 651724; in the data active means activity change below about -65%; inconclusive means about -30% to -65%; inactive means above about -30%; also: % is scaled to controls: 0 for no effect and ±100 for the full control effect
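GST-E1A and His-tagged CtBP (125 nM each as 5X stock) were preincubated with pin-transferred compound for 2 h at 37 °C in the dark, then glutathione donor and nickel acceptor beads were added for 1 h before AlphaScreen reading.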
TRPML1 blocker = human mucolipin-1 channel inhibition | TRPML1-inducible cells, Ca2+ dye fluorescence, FDSS; hits give low values; inhibition of EC80 agonist-evoked calcium signal | activity change, negative = inhibition, % (concentration not given with the values) | 390,000 compounds, 0.02% hits | Q9GZU1; in the data active means activity change below about -50%; inconclusive means about -30% to -50%; inactive means above about -30%;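 also: stimulus is agonist 54-4 at its EC80 concentration; % is scaled to controls: 0 for no effect and ±100 for the full control effect; the text of the record puts the active cut at -80%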
Target sequence (Q9GZU1 whole entry, looked up): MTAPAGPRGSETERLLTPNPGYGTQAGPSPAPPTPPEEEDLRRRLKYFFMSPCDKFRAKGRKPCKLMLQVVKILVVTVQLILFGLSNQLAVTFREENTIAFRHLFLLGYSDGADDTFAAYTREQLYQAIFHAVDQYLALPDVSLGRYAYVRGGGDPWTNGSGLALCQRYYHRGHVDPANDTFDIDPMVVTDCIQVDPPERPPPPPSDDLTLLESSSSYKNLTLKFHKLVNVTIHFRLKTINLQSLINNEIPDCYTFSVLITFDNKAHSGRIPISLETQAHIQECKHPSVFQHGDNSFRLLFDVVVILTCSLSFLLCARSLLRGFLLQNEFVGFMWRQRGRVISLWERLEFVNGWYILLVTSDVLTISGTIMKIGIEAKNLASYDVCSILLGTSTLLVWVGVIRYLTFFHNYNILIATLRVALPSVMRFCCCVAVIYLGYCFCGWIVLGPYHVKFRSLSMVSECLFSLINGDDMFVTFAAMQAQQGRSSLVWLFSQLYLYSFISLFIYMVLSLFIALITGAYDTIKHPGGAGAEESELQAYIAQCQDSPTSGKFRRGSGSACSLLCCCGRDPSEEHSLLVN
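Calcium fluorescence in TRPML1-DL cells induced overnight with Tet: a 110 s read after compound pin addition, then a 110 s antagonist read after challenge with 54-4 at 4 uM final (EC80).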
TRPML1 agonist = agonists of human TRPML1 channel; Q9GZU1; TRPML1-expressing cells, Ca2+ dye fluorescence, FDSS; host cell line not named in the record; reference of the full effect not given here; activation, % (concentration not given with the values); 410,000 compounds, 0.12% hits; AID 624414; in the data active = activation above about 50%; inconclusive = about 30% to 50%; inactive = below about 30%; also: 0% is about no effect; the text of the record puts the active cut at 80%
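Calcium fluorescence on an FDSS kinetic reader gave the read-out. Tet-induced TRPML1-DL cells were plated overnight, dye-loaded (Ca8 with quencher, 45-90 min, room temperature, dark), then read 110 s after compound addition, and again 110 s after 4uM final 54-4 (EC80).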
Six1-Eya2 inh = blocks human Six1 binding to Eya2; 360,000 compounds, 0.56% hits; AlphaScreen GST-Six1/His-Eya2 binding, biochemical; hits give low values; control for the full effect not named in the record; Q15475+O00167; activity change, % (no concentration beside the values); AID 651725; in the data active = activity change below about -65%; inconclusive = about -30% to -65%; inactive = above about -30%; also: % is scaled to controls: 0 for no effect and ±100 for the full control effect
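AlphaScreen with GST-Six1 and His-Eya2 (5X mix: 250 nM and 500 nM), glutathione donor and nickel acceptor beads; buffer 50 mM Tris pH 8.0, 300 mM NaCl, 1 mM TCEP; 1 h at 37 C in the dark.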
D2 ag = human D2 receptor agonism in beta-arrestin assay | DiscoveRx PathHunter D2 beta-arrestin, luminescence, 90 min; 100% = 57 uM dopamine signal | activation, % (concentration not given with the values) | 360,000 compounds, 0.084% hits | AID 624465; in the data active = activation above about 40%; inconclusive = about 15% to 40%; inactive = below about 15%; also: the text of the record calls up to 30% inactive
Target sequence (P14416 whole entry, looked up): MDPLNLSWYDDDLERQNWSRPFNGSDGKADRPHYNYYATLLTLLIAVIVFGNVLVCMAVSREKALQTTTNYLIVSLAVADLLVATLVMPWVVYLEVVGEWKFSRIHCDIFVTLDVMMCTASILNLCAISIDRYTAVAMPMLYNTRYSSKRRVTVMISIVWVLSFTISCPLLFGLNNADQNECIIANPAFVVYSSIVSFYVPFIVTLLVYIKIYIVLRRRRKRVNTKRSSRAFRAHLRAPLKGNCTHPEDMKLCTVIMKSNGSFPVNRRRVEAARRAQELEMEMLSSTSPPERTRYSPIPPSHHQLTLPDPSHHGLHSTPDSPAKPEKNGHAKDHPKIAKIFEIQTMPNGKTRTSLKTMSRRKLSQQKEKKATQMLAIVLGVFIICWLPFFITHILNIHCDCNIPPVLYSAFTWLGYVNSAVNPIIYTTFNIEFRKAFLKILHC
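DiscoveRx PathHunter D2 beta-arrestin cells (2,100/well) attached overnight, then compound-stimulated 90 min at 37 C in HBSS/10 mM HEPES/0.1% Tween-20 buffer; beta-galactosidase complementation read by luminescence after 1 h at ambient temperature. Dopamine 57 uM final (EC100) as control.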
PINK1 expr mod = changes PINK1 expression | PINK1 immunofluorescence, high-content cytometry, 24 h | 410,000 compounds, 0.2% hits | Potency, µM (highest dose often 76.6 µM), for the others: top-dose activation (PINK1 increase), usual class: activators; active = well fitted activation curve with a large enough effect; inconclusive = small, poorly fitted or top-dose-only effect; inactive = flat fitted curve, though single readings scatter; cell line not stated here;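 also: potency is read from the fitted curve at half-maximal effect; % of control where 0% means no effect; nearly all actives have a fitted effect of over 65% in size; a mitochondrial uncoupler was the plate control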
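A stable cell line was treated with compounds at 5 concentrations for 24 hours, with CCCP as control. PINK1 levels and mitochondrial localization were measured by immunofluorescence with mitochondrial, cell and nuclear markers after fixation, read by laser-scanning cytometry.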
Starred values were filed as active, the others as inactive; ? = inconclusive; / = no result given; & = joins results of further samples; [ ] = remark or other dose. Compounds as they come; any-hit rate near 1%.

cpd	structure	CtBP-E1A inh	TRPML1 blocker	TRPML1 agonist	Six1-Eya2 inh	D2 ag	PINK1 expr mod
1	COc1cccc(N/C(N)=N/c2nc(C)cc(=O)[nH]2)c1	/	/	/	0	-1.0	0.6%
2	COC(=O)CCc1ccc(O)cc1	9	/	/	3	7.8	-0.2%
3	O=c1c2ccccc2on1-c1ccccc1	1	/	/	1	-0.8	0.0%
4	COc1ccc(-c2ccccc2C2=CC(=O)CC(C)(C)C2=O)cc1	-3	9	-0.7	-10	-7.7	0.7%
5	C=CCN1C(=O)S/C(=C/c2ccc(Sc3nc4ccccc4[nH]3)o2)C1=O	-20	-10	0.4	-8	-5.5	?
6	Cc1cc2nc3n(c2cc1C)CC1CC(C(=O)NCc2cccc(C(F)(F)F)c2)N(C)C31 (centres undefined)	4	-5	-1.1	2	1.7	0.6%
7	Cc1ccc(C2=Nc3ccccc3NC(C)(c3ccc(C)o3)C2)o1 (centres undefined)	-12	2	-0.2	-24	-0.7	1.7%
8	CCN(C(=O)COC(=O)c1cc(OC)ccc1Br)C1CCS(=O)(=O)C1 (centres undefined)	-10	4	-0.3	-9	0.9	0.4%
9	COC(=O)c1ccc(-c2ccc(C(c3c(C)[nH][nH]c3=O)c3c(C)[nH][nH]c3=O)o2)cc1	?	-10	3.1	?	-0.2	0.3%
10	O=C(Nc1ccccc1)OCCCCCOC(=O)Nc1ccccc1	-1	2	2.8	4	-3.4	0.9%

Arranged by heavy-atom count (smallest number first): some entries from above.
cpd	structure	CtBP-E1A inh	TRPML1 blocker	TRPML1 agonist	Six1-Eya2 inh	D2 ag	PINK1 expr mod
1	COc1cccc(N/C(N)=N/c2nc(C)cc(=O)[nH]2)c1	/	/	/	0	-1.0	0.6%
7	Cc1ccc(C2=Nc3ccccc3NC(C)(c3ccc(C)o3)C2)o1 (centres undefined)	-12	2	-0.2	-24	-0.7	1.7%
9	COC(=O)c1ccc(-c2ccc(C(c3c(C)[nH][nH]c3=O)c3c(C)[nH][nH]c3=O)o2)cc1	?	-10	3.1	?	-0.2	0.3%
6	Cc1cc2nc3n(c2cc1C)CC1CC(C(=O)NCc2cccc(C(F)(F)F)c2)N(C)C31 (centres undefined)	4	-5	-1.1	2	1.7	0.6%

Following part
cpd	structure	CtBP-E1A inh	TRPML1 blocker	TRPML1 agonist	Six1-Eya2 inh	D2 ag	PINK1 expr mod
11	COc1ccc(S(=O)(=O)N(CC(=O)NCCSc2ccccc2)c2ccc(Cl)cc2)cc1	/	1	1.4	/	/	2.6%
12	Cc1ccc2occ(/C=N/O)c(=O)c2c1	-15	7	-0.1	-8	-2.2	0.6%
13	COc1ccc(CN(CC(O)COCc2ccccc2)S(=O)(=O)c2ccccc2Br)cc1 (centres undefined)	-23	79	1.8	8	-0.2	-0.1%
14	Cc1ccccc1N1C(=O)CC2(CCCC2)CC1=O	5	0	-0.6	5	1.2	0.6%
15	COc1ccc(S(=O)(=O)NCC(c2cccnc2)N2CCN(c3ccc(F)cc3)CC2)cc1C (centres undefined)	-12	1	-0.6	-13	3.8	0.3%
16	COCCN(C(=O)CSc1nnc(-c2ccc(C(C)(C)C)cc2)n1N)c1c(N)n(CC(C)C)c(=O)[nH]c1=O	-2	27	1.1	-3	-6.1	-3.2%
17	Nc1ccn([C@@H]2O[C@H](CNC(=O)[C@@H](N)CSCc3ccccc3)[C@@H](O)[C@H]2O)c(=O)n1	-1	-2	0.1	6	-2.8	3.4%
18	Cc1ccc(OCc2cc(C(=O)N3CCc4[nH]cnc4C3c3ccccn3)no2)cc1C (centres undefined)	?	6	-0.9	-27	-2.2	-1.7%
19	O=C(COC(=O)c1ccc2c(c1)OCO2)Nc1ncc(Cl)cc1Cl	6	-2	0.2	4	1.4	3.5%
20	COc1ccc(CNC(=O)c2cc3sccc3n2C)cc1	/	13	1.0	/	/	-0.1%
21	Cc1nnc(SCc2cccc([N+](=O)[O-])c2)o1	-12	-1	-0.1	-8	-1.4	-0.9%
22	CC(=O)C1C(c2ccc(Cl)cc2)c2c(noc2C)CC1(C)O (centres undefined)	/	-11	0.5	3	2.7	-1.6%
23	COC(=O)CCN1CCc2cc(N=Nc3ccc([N+](=O)[O-])cc3)ccc21	?	-6	0.7	?	3.4	7.9%
24	CCC(C)OC(=O)C[N+](C)(C)CCOC1CC2CCC1(C)C2(C)C (centres undefined)	8	0	-0.2	5	3.7	0.2%
25	Cn1c(CCN2CCN(c3ccccn3)CC2)nc2cc(NC(=O)COc3ccccc3)ccc21	/	3	-0.4	-10	5.6	8.7%
26	O=c1[nH][nH]cc1C=Nc1ccccc1O	-83*	0	-0.8	-77*	2.1	-1.3%
27	O=C(Nc1cccc(C(F)(F)F)c1)OCCN1CCN(Cc2ccccc2)CCC1=O	-3	-3	2.2	-3	-0.9	?
28	COc1ccc(S(=O)(=O)N2CCN(C(=O)c3cc(C)on3)CC2)cc1	/	-1	-1.7	-1	-1.7	3.2%
29	COc1ccc(C(CC(=O)Nc2ccc(Br)cn2)N2Cc3ccccc3C2=O)cc1 (centres undefined)	/	7	-0.5	/	/	-0.1%
30	Cc1ccc(S(=O)(=O)N(Cc2nccn2C)C(C)C)cc1	-1	10	0.3	5	-1.2	0.4%
31	Cc1ccc(C)c(Cn2c3ccccc3c3cnn(CC(=O)NC(C)c4ccccc4)c(=O)c32)c1 (centres undefined)	/	3	0.6	/	/	2.0%
32	Cc1ccccc1NC(=O)CSc1cn(CC(=O)N(C(C)C)C(C)C)c2ccccc12	/	11	2.8	/	/	2.7%
33	Cc1ccc(NC(=O)CSc2nccn2Cc2ccco2)cc1Cl	/	5	1.4	/	/	11%
34	Cc1cc(C)n(-c2ccc(C(=O)N3CC(C)OC(C)C3)cc2)n1 (centres undefined)	/	-4	1.0	9	-4.4	0.4%
35	CCCCCCCCCCCCN1[C@@H](CC(=O)O)c2cc(C(F)(F)F)ccc2S1(=O)=O	6	-10	-0.7&0.3	0	3.2	?
36	O=C(CSc1nccc(=O)[nH]1)Nc1ccc2ccccc2c1	0	16	-0.3	-2	?	0.6%
37	CCOc1ncccc1C(=O)OCC(=O)NC1CC1	-8	33	0.2	2	-0.8	2.6%
38	COc1cc(C(=O)NNC(=O)c2cc(C)[nH]n2)cc(OC)c1OC	-5	8	0.1	13	-4.8	-0.7%
39	Cc1ccc(NC(=O)C(=O)NCC(c2ccc3c(c2)OCO3)N2CCN(c3ccccc3)CC2)cc1 (centres undefined)	/	10	-0.7	/	/	0.7%
40	Cc1onc(-c2c(Cl)cccc2Cl)c1NC(=O)NN(C)c1ccc([N+](=O)[O-])cn1	4	20	-0.6	1	-2.6	-1.5%
41	COCCn1cnnc1SCC(=O)c1ccc(S(=O)(=O)N2CCCC2)cc1	-1	16	2.7	-1	-1.3	-0.7%
42	O=C(CNCc1ccc(Cl)cc1)Nc1ccc(C(=O)N2CCCCCC2)cc1	-3	2	0.1	5	1.4	2.1%
43	COc1ccccc1CNC(=O)c1ccc(NC2=NC3CS(=O)(=O)CC3S2)cc1 (centres undefined)	14	1	0.1	7	-0.7	-1.5%
44	COC(=O)CS(=O)(=O)c1cccc2cccnc12	7	-9	2.0	6	-2.5	-0.7%
45	CC(C)(C)N(Cc1ccccc1)C(=O)c1ccc2c(c1)OCCO2	3	2	3.1	3	-6.6	-1.7%
46	CC1(C)Cc2c(cnn2-c2ccccc2)C(=O)/C1=N\NC(=O)c1ccccc1	9	3	0.2	5	1.4	0.9%[38.3 µM]
47	CCOC(=O)C(CCc1ccccn1)c1ccccc1 (centres undefined)	-2	28	0.3	1	-2.6	0.5%
48	CC1=C(C(=O)O)N2C(=O)C(NC(=O)c3ccccc3Cl)C2SC1 (centres undefined)	6	10	-0.9	9	2.4	1.0%
49	Cc1nc2ccc(NC(=O)c3ccc(Br)o3)cc2s1	1	-5	0.1	-5	1.4	0.9%
50	COc1ccc(/C=C2\SC(=S)N(NC(=O)c3csc4c3CCCC4)C2=O)cc1	2	0	0.5	3	-3.6	2.1%
51	Cc1cccc(C(=O)NNC(=O)c2ccccc2-n2cccc2)c1	0	1	0.2	1	-5.9	3.8%
52	c1cc(CSc2nnc(-c3ccc4c(c3)OCO4)o2)ccn1	-2	7	0.8	0	1.1	-0.4%
53	COc1ccc2[nH]c(=O)c(CN(C(=O)c3cccnc3)c3cc(C)ccc3C)cc2c1	-2	-2	-0.4	8	0.5	0.4%
54	CN1CCC(=NNC(=O)C(=O)Nc2ccccc2F)CC1	-15	10	0.5	15	-4.4	-0.6%
55	O=C(CN1CCN(c2ccc(O)cc2)CC1)Nc1ccc2c(c1)OCCO2	-13	-2	-0.9	-14	?	0.8%
56	COc1ccccc1C(=O)CN1C(=O)NC2(CCc3ccccc32)C1=O (centres undefined)	9	3	-0.8	-2	-3.2	2.2%
57	CCOC(=O)c1ccc(O)c(-n2cc3c(c2-c2ccccc2)c(=O)n(C)c(=O)n3C)c1	-2	-2	-0.3	-12	-6.1	1.8%
58	O=c1c2[nH]c3ccccc3c2nc(SCc2cccc(F)c2)n1-c1ccccc1	/	12	0.3	/	/	5.7%
59	CCOC(=O)C1CCN(C(=O)COc2ccc(Br)cc2C)CC1	-2	-5	-0.2	5	-3.5	0.8%
60	COc1ccccc1-c1nn(-c2ccccc2)cc1C(=O)NCC(c1ccco1)N1CCCC1 (centres undefined)	-15	-14	0.4	-3	-2.6	-2.4%

Next section:
cpd	structure	CtBP-E1A inh	TRPML1 blocker	TRPML1 agonist	Six1-Eya2 inh	D2 ag	PINK1 expr mod
61	CCCCc1ncc(CN2CCN(Cc3ccc(C)cc3)C(CCO)C2)[nH]1 (centres undefined)	/	6	-0.1	-2	-3.4	0.2%
62	Fc1ccccc1-n1[nH]nnc1=S	9	15	-0.2	1	-4.2	1.8%
63	COc1cc(-c2nc3oc4ccccc4c(=O)c3c(=O)n2Cc2ccco2)cc(OC)c1OC	-5	6	-0.1	2	-1.3	0.7%
64	Nc1c(C(=O)Nc2ccccc2F)sc2nc3c(cc12)CCCCCC3	/	27	0.3	/	/	14%
65	COc1ccc(NC(=O)C(C(C)C)N2Cc3ccccc3C2=O)cc1 (centres undefined)	/	34	-0.8	/	/	7.0%
66	COc1cccc(C(=O)OCn2nnc3ccccc3c2=O)c1	68	2	1.5	23	-0.9	1.7%[38.3 µM]
67	CCOC(=O)c1c(NC(=O)c2cc(CC(C)C)on2)sc(C(C)=O)c1C	-4	-11&6	1.0&-0.4	3	0.2	-1.4%&0.8%
68	C/C(=N\NC(=S)Nc1ccc(F)cc1)C1CC1	10	-9	-0.5	-2	0.7	-2.8%[38.3 µM]
69	Cc1c(O)c2ccccc2oc1=O	4	-2	-0.3	2	-1.7	0.9%
70	COc1cccc(C(=O)N2CCC(N3CC(C)OC(C)C3)CC2)c1 (centres undefined)	21	-7	-0.7	11	0.7	-0.2%
71	Cc1ccc(NC(=O)/C=C/c2ccc(Cl)cc2)c(Br)c1	/	7	3.6	/	/	4.4%
72	CN(C)c1ccc(/C=N/NC(=O)CCc2nc3ccccc3[nH]2)cc1	0	21	2.1	-13	-3.1	1.1%
73	CCCCn1c(=O)c2ccccc2n2c(=S)[nH]nc12	-14	15	-0.9	-27	-1.6	-1.3%
